# High-throughput results (PubChem BioAssay)
# Vaccinia Venus: vaccinia inhibition (Venus reporter); Vaccinia virus Venus reporter expression, fluorescence; Potency, µM (top dose mostly 36.5 µM), without a hit: at the top dose activity change, negative = inhibition, actives largely listed as inhibitors; 0.46% of 330,000 active; AID 720580; active means well fitted inhibition curve with a large enough effect; inconclusive means small, poorly fitted or top-dose-only effect; inactive means no such curve, though single readings can be large or run the other way; tested in A549 cells; further: nearly all actives have a fitted effect of over 30% in size; inactives centre near -10
# Vaccinia mCherry: inhibitors of vaccinia virus infection (mCherry reporter signal); 0.63% of 310,000 active; Potency, µM (top dose mostly 36.5 µM), for inactives: top-dose activity change, negative = inhibition, most hits filed as inhibitors; Vaccinia virus mCherry reporter infection, fluorescence; about a quarter of the inactives have no number; active = well fitted inhibition curve with a large enough effect; inconclusive = small, poorly fitted or top-dose-only effect; inactive = no such curve, though single readings can be large or run the other way; tested in A549 cells; further: nearly all actives have a fitted effect of over 35% in size; inactives centre near -10
# Active calls of the source: *; i = inactive; ? = inconclusive; / = not tested or not shown; & = joins results of further samples; [ ] = remark or other dose. On the % scale 0 is the no-effect control and ±100 the full control effect; potency means the concentration at half of the fitted maximal effect. Compounds as they come (roughly 0.82% active in at least one column).
no.	mol	Vaccinia Venus	Vaccinia mCherry
1	COc1ccccc1NC(=O)C1=C(C)Nc2nc3ccccc3n2C1c1cccs1 (configuration not stated)	?	?
2	Cc1ccc2[nH]c(SCC(=O)N3CCOCC3)nc2c1C	-14.8%	-16.3%
3	CC(=O)COc1ccc2c(C)c(-c3ccccc3)c(=O)oc2c1	-14.7%	i
4	CCOC(=O)C1CCCN(C(=O)C2(c3ccc(Cl)cc3)CCCC2)CC1 (configuration not stated)	-6.3%	i
5	COc1ccccc1NS(=O)(=O)c1ccc(O)c(C(=O)OCC(=O)N2CCc3ccccc32)c1	-13.9%	?
6	COc1cccc(NC(=O)NC2(C(=O)N3CCC(O)CC3)CCCCC2)c1	-3.5%	i
7	CC(C)[C@H]1COCCS(=O)(=O)N1Cc1ccccc1-c1ccc(C(C)(C)C)cc1	-13.1%	-10.1%
8	O=C(O)c1cc(-c2ccccc2)nn1CC1CC(c2cccnc2)=NO1 (configuration not stated)	-7.8%	-1.2%
9	C=CCn1c(SCC(=O)Nc2cc(C)on2)nnc1C1COc2ccccc2O1 (configuration not stated)	-4.5%	-10.6%
10	CN(C)CCNC(=O)/C(=C/c1cccc([N+](=O)[O-])c1)NC(=O)c1ccccc1	-2.4%	-14.1%
11	O=C(N=C1SCC(=O)N1c1ccccc1)c1ccco1	21.5%	/
12	CCOC(=O)[C@H]1[C@H]2COc3ccc(OC)cc3[C@@H]2N2C(=O)CN(Cc3ccc(C)cc3)C(=O)[C@@]12C	-12.6%	-8.7%
13	O=C(NC1CCCCC1)N(c1ccccc1)c1nnc(-c2cccc([N+](=O)[O-])c2)s1	-3.0%	i
14	O=C(c1ccccc1)N1CCN(C(=S)NCc2ccc3c(c2)OCO3)CC1	-5.7%	i
15	Cc1cnc(C)c(-c2cc(F)cc3c2OC(CNC(=O)CN2CCCC2)C3)n1 (configuration not stated)	-13.9%	-0.8%
16	O=[N+]([O-])c1ccccc1S(=O)(=O)N1CCN(c2ccc(F)cc2)CC1	-18.3%	-4.5%
17	Cc1ccc(-n2ncc3c2ncn2c(C)nnc32)cc1C	-0.4%	i
18	Cc1ccccc1Cn1c(=O)n(Cc2ccc(Cl)cc2)c(=O)c2cccnc21	-12.7%	-3.5%
19	CC1=C(C(=O)N(C)Cc2ccccc2)C2(CCC(C)CC2)OC1=O (configuration not stated)	-0.4%	-11.4%
20	O=S(=O)(c1ccccc1)c1nc(-c2cccc(Cl)c2)oc1N1CCOCC1	-3.9%	-18.1%
21	Cc1ccc(N2C(=O)CCSC23C(=O)N(Cc2ccccc2)c2ccccc23)cc1 (configuration not stated)	-27.3%	i
22	Cc1ccc(N2Cc3ccccc3C2=S)cc1	-14.1%	-10.7%
23	O=S(=O)(NCC1CCCO1)c1ccc(Cl)c2ccccc12 (configuration not stated)	-10.2%	-9.2%
24	C=C(c1ccc(OC)cc1)c1ccc(OC)cc1	-13.8%	-10.2%
25	CCC(=O)NCCc1cc2ccc(C)cc2[nH]c1=O	-2.9%	-18.1%
26	O=C(O)COCC(=O)NCc1csc2ccccc12	-13.2%[7.34 µM]	-20.5%[7.34 µM]
27	CCOc1ccc(S(=O)(=O)Nc2cc3c(C(=O)OCc4ccccc4)c(C)oc3c3ccccc23)cc1	-20.3%	-26.2%
28	COc1ccc(-c2nc(-c3cccs3)c(-c3cccs3)[nH]2)cc1OC	-24.6%	?
29	O=S(=O)(NCc1cccnc1)c1ccc(Cl)c(Cl)c1Cl	-14.4%	-16.2%
30	O=C(NC1CCCc2ccccc21)c1ccc(=O)[nH]c1 (configuration not stated)	-1.1%	-9.5%
31	NS(=O)(=O)c1ccc(CCNC(=O)CCCOc2ccccc2)cc1	-15.1%	i
32	N#Cc1ccsc1NC(=O)CCN1CCN(C(c2ccccc2)c2ccccc2)CC1	-15.0%	-22.7%
33	CCN(CC(=O)Nc1ccccc1C(=O)OC)S(=O)(=O)c1ccccc1	-8.3%	-5.9%
34	O=C(CSc1c2c(nc3ccc(Cl)cc13)CCCC2)NCc1ccco1	-18.2%	-26.9%
35	Cc1ccc(-c2ccc(CN3C(C(C)C)C(=O)N(Cc4cn(CCC5OCCO5)nn4)CCS3(=O)=O)cc2)c(C)c1 (configuration not stated)	?	-26.7%
36	Cc1ccc(-n2c(O)c(/C=N/NC(=O)C3COc4ccccc4O3)c3ccccc3c2=O)cc1 (configuration not stated)	-17.5%	-25.1%
37	Cc1ccc(S(=O)(=O)c2nc(S(C)(=O)=O)sc2N2CCCCC2C)cc1 (configuration not stated)	-11.6%[7.34 µM]	-16.2%[7.34 µM]
38	COc1cccc(CNC(=S)Nc2ccc3c(c2)c(=O)n(C)n3C)c1	-7.3%	-8.7%
39	CCOC(=O)Cc1n[nH]c(=O)c2ccccc12	6.5%	-9.8%
40	O=C(c1cnc(N2CCOCC2)c2ccccc12)N1CCN(c2ccccc2)CC1	-15.7%	-12.1%
41	CC(C(=O)N1CCOCC1)N1C(=O)C2C3CC(C(Br)C3Br)C2C1=O (configuration not stated)	-4.7%	-7.3%
42	CCC(=O)c1cn(CC(=O)Nc2ccc(C)cc2)c2ccccc12	-11.8%	-8.7%
43	COc1ccc(CNC(=O)CCC(=O)Nc2nnc(C(C)C)s2)cc1	-10.1%	-0.9%
44	COc1ccc(CN(CC(=O)NC2CCCCC2)C(=O)CCC(=O)Nc2nccs2)cc1	0.9%	i
45	O=C(c1ccccc1CCc1ccccc1)N1CCN(c2ccccn2)CC1	-25.0%	-20.9%
46	Cc1ccc2[nH]c3c(=O)n4c(nc3c2c1)SCC4	-20.5%	-26.2%
47	COCCCn1c(CCC(=O)O)ccc1-c1cccs1	-27.1%	/
48	CCOc1cc(C(=O)NCc2ccncc2)cc(OCC)c1OCC	-10.0%	-9.9%

# Three structures out of the list, arranged by molecular weight, low to high.
no.	mol	Vaccinia Venus	Vaccinia mCherry
48	CCOc1cc(C(=O)NCc2ccncc2)cc(OCC)c1OCC	-10.0%	-9.9%
43	COc1ccc(CNC(=O)CCC(=O)Nc2nnc(C(C)C)s2)cc1	-10.1%	-0.9%
41	CC(C(=O)N1CCOCC1)N1C(=O)C2C3CC(C(Br)C3Br)C2C1=O (configuration not stated)	-4.7%	-7.3%

# (listing goes on)
no.	mol	Vaccinia Venus	Vaccinia mCherry
49	Cc1cccc(CN2CCc3c([nH]c4ccccc34)C2)c1	-4.6%	?
50	C#CCSc1nnc(-c2cc3c(C(F)(F)F)nn(C)c3s2)n1C	-10.7%	-21.0%
51	Cc1ccn2c(=O)nc(SCC(=O)NCc3ccccc3Cl)nc2c1	-5.4%	-14.0%
52	C#C[C@]1(OC(C)=O)CCC2C3CCC4=CC(=O)CCC4C3CC[C@]21C (some centres not stated)	-9.5%	-14.6%
53	Cc1c(NC(=O)c2ccc(S(=O)(=O)Nc3ccccc3F)cc2)c(=O)n(-c2ccccc2)n1C	-2.9%	i
54	C=C(C)COc1ccc(-c2[nH]ncc2Oc2ccccc2OCC)c(O)c1	?	/
55	Cc1ccc(S(=O)(=O)c2cn(Cc3ccc(F)cc3)c3cc(N4CCCC4)c(F)cc3c2=O)cc1	-8.5%	-10.4%
56	Cc1ccc(N(CN2CCCC2=O)C(=O)c2ccccc2)cc1	-7.4%	i
57	O=C(NC(=S)Nc1cc([N+](=O)[O-])ccc1O)c1ccc2c(c1)OCO2	?	?
58	O=[N+]([O-])c1cccc2nc(-c3ccccc3)c(-c3ccccc3)nc12	-13.2%	-14.2%
59	O=C(Nc1ccc(Br)cc1F)c1cc(S(=O)(=O)NCc2ccc(F)cc2)ccc1F	-25.3%	-18.2%
60	COc1ccccc1CNc1ccc2c(c1)CCC2	0.3%	?
61	CCC/C=C/c1ccc(CN2C(C)C(=O)N(Cc3cn(CCC4OCCO4)nn3)CCS2(=O)=O)cc1 (configuration not stated)	-16.8%	-5.7%
62	O=C(CNC(=O)c1ccc2c(c1)OCCO2)N/N=C/c1ccc(O)cc1O	-13.7%	?
63	Cc1ccc(Nc2ccc(N3CCN(C(=O)c4ccc([N+](=O)[O-])cc4)CC3)nn2)cc1	-9.9%	-22.2%
64	CN1CCCC1CCNc1ccc2sc3ccccc3c(=O)c2c1 (configuration not stated)	-20.5%	?
65	COc1ccc(C(C(=O)NC(C)(C)C)N(C(=O)CCC(=O)Nc2ccccn2)C2CCCCC2)cc1 (configuration not stated)	-9.2%	-5.0%
66	CCOC(=O)c1oc2c(c1C)C(=O)CCC2	-5.6%	i
67	COCCn1c(=O)[nH]c2cc(C(=O)Nc3ccc(OC)c(Cl)c3)ccc2c1=O	-0.6%	0.9%
68	COc1ccccc1OCC#CCN1CCCC(C)C1 (configuration not stated)	-9.3%	-2.2%
69	N#Cc1ccc(CC(=O)c2ccccc2)[nH]c1=O	43.4%[activator]	21.9%
70	COc1ccc(C(=O)/C=C/Nc2ccc(C)cn2)cc1OC	-5.5%	-20.3%
71	O=C(NC(c1ccc(Cl)cc1)P(=O)(Oc1ccccc1)Oc1ccccc1)OCc1ccccc1 (configuration not stated)	-10.0%	-14.1%
72	CCCCCCNC(=O)CC(c1ccccc1)c1cc(Br)ccc1O (configuration not stated)	?	/
73	Cc1ccccc1OCC(=O)OCC(=O)NC1CC1	-6.7%	-11.9%
74	CCOC(=O)N1CCC(NC(=O)CCC(=O)N2CC(C)Oc3ccccc32)CC1 (configuration not stated)	-18.3%	-15.8%
75	CCc1ccc(OCC(=O)Nc2ccc(Cl)c(-c3nc4cc(C)cc(C)c4o3)c2)cc1	-17.7%	-8.5%
76	CN(C)CCCN1c2ccccc2Sc2ccc3ccccc3c21	?	10µM*
77	CC(C)CNC(=O)COC(=O)c1cccc(S(=O)(=O)NCC(F)(F)F)c1	7.2%	i
78	CC1CCCN(C(=O)C(=O)c2cn(CC(=O)N3CCCCCC3)c3ccccc23)C1 (configuration not stated)	-22.6%	i
79	Cc1ccc(-n2c(SCC(=O)NC3CCS(=O)(=O)C3)nc3ccccc3c2=O)cc1C (configuration not stated)	-14.0%	-9.4%
80	CC(C[N+](C)(C)C)OC(N)=O (configuration not stated)	-9.6%&-7.6%	-7.9%
81	O=C(Nc1cccc(-c2cnc3ccccc3n2)c1)c1ccco1	-22.6%	-10.7%
82	CNC(=O)CSc1nc2c([nH]c3ccccc32)c(=O)n1CCOC	4.1%	4.8%
83	NS(=O)(=O)c1ccc(CNC(=O)c2ccc(C(=O)c3ccccc3)cc2)cc1	-3.6%	-2.9%
84	COCc1nnc(NS(=O)(=O)c2ccccc2)s1	-4.5%	i
85	CCC1Oc2ccccc2N(CC(=O)NCCCN2CCC(C)CC2)C1=O (configuration not stated)	4.4%	-15.1%
86	CCOC(=O)N1CCN(CCC(=O)Nc2ccc(C)cc2)CC1	-9.0%	-8.3%
87	COc1ccc(NC(=O)C(NCC(C)C)c2ccccc2)cc1Cl (configuration not stated)	10.1%	-2.1%
88	Cc1ccc(-n2ncc3c(NCCc4ccccc4)ncnc32)cc1	-9.9%	-9.2%
89	Cn1c(SCC2CCCO2)nnc1C1CCN(Cc2ccc(-c3cccc(Cl)c3)o2)CC1 (configuration not stated)	-14.6%	i
90	O=C(CN(Cc1ccccc1)C(=O)c1ccc2c(c1)OCCO2)NCc1ccc2c(c1)OCO2	-18.7%	/
91	COC(=O)c1sccc1NC(=O)c1ccc(OC)c(OC)c1	-3.3%	-6.8%
92	Cc1oc2c(cc(NS(=O)(=O)c3ccc(C(C)C)cc3)c3ccccc32)c1C(=O)OCc1ccccc1	-15.4%	-14.9%
93	CCN(c1ccccc1)S(=O)(=O)c1ccc(C(=O)Nc2ccc(C)cn2)cc1	-16.8%	-8.8%
94	COc1ccc(NC(=O)c2ccc3oc(=O)c(S(=O)(=O)c4ccc(F)cc4)cc3c2)c(OC)c1	-3.0%	-7.8%
95	O=C(O)CCn1cc(/C=C/C(=O)c2ccc(Cl)cc2)c(-c2ccc(Br)cc2)n1	-9.3%	-5.3%
96	O=C(NC1(C(F)(F)F)NC(=O)N(c2ccc(F)cc2)C1=O)c1ccncc1 (configuration not stated)	-9.6%	i
97	COC(=O)c1ccc2c(c1)C(C)(C)C(/C=C/c1ccc(OC)c(OC)c1OC)=[N+]2C	87.4%[activator]	-16.1%[1.46 µM]
98	CC(=O)Oc1c(C)cccc1C(=O)O	8.0%	2.2%
99	COc1ccc(C(C(=O)NCc2ccccc2)n2c(-c3ccccn3)nc3ccccc32)cc1 (configuration not stated)	-29.3%	-23.1%
100	COC(=O)c1c(C)[nH]c(C)c1-c1cccc([N+](=O)[O-])c1	-3.5%	-6.6%
101	COc1ccc(OCCCC(=O)NNC(=O)CCN2CCN(c3ccccc3)CC2)cc1	?	?
102	COCCNC(=O)c1cnn(-c2cccc(C)c2)c1-n1cccc1	-8.8%	-9.8%
103	O=C(NC(=S)Nc1ccc2[nH]c(=O)[nH]c2c1)c1ccccc1Cl	-12.5%	-20.5%
104	N/C(=N\OC(=O)c1cccs1)c1ccccc1	-19.9%	i

# Next compounds follow.
no.	mol	Vaccinia Venus	Vaccinia mCherry
105	COC(=O)CNC(=O)/C=C/c1cc(Br)ccc1OC	-19.9%	-1.2%
106	Cc1noc(C)c1NC(=O)Nc1ccc2c(c1)C(=O)N([C@H](C)CO)C[C@H](C)[C@@H](CN(C)S(=O)(=O)c1c(C)noc1C)O2	-12.1%	i
107	Cc1c(C)c2c(OCC(=O)N3CCC[C@H]3C(=O)O)cc3c(c2oc1=O)CCC(C)(C)O3	2.6%	7.4%
108	Cc1cc(C)c(S(=O)(=O)Nc2cnc3ccccc3c2)c(C)c1	-14.1%	-19.9%
109	N#Cc1cccc(NC(=O)c2cc(C3CCCCN3C(=O)c3ccccc3)on2)c1 (configuration not stated)	-4.9%	3.1%
110	Cc1ccc(S(=O)(=O)c2cnc(SCC(=O)Nc3ccc4c(c3)OCCO4)[nH]c2=O)cc1	8.3%	0.9%
